BasE inh: BasE siderophore biosynthesis inhibition; AID 485350; 84,000 compounds, 0.1% hits; inhibition, % (concentration not given with the values); purified BasE, fluorescence polarization binding displacement;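 active means both replicates above 25% with normal brightness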;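 further: 0% = negative plate control signal and 100% = positive plate control signal; stock transfer was 100 nL into about 30 µL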
KSHV LANA nucl: LANA-nucleosome interaction inhibition; FITC-LANA1-23 / chicken nucleosome fluorescence polarization; hits give low values; z-score (concentration not given with the values); 51,000 compounds, 0.3% hits; AID 720717;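 active means both repeat wells score below -2 in polarization z-score versus plate sample wells, excluding overly bright wells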;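 further: 100 nL library stock added to about 30 µL; numbers are from one replicate; some results filed as inactive read as strong as hits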
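Assay system: purified chicken nucleosomes with FITC-labelled LANA N-terminal peptide (1-23) / Probe or stimulus: 50 nM FITC-LANA1-23 probe / Compound dosing: pin-transferred compound, 100 nL / Times: compound with peptide–nucleosome mix 10–45 min at room temperature / Technique: fluorescence polarization, 480 nm excitation, 535 nm parallel and perpendicular emission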
Starred values were filed as active, the others as inactive; / = no result given; & = joins results of further samples. An excerpt; count on the stated rates, not on these rows.

Structure	BasE inh	KSHV LANA nucl
Nc1c(C(=O)c2ccccc2)sc2nsc(SCCN3CCOCC3)c12	/	0.93
Cc1cc(CN2c3cccc4cccc(c34)S2(=O)=O)no1	-0.4	/
O=C(CSc1ccc2c(c1)OCCO2)N1CCN(Cc2ccccc2)CC1	0.9	/
Cc1cc(NS(=O)(=O)c2ccc(NCN3C(=O)c4ccccc4C3=O)cc2)no1	0.5	/
CC(=O)Nc1ccc(Cl)c(NC(=O)c2ncoc2-c2cccc(C)c2)c1	1.3	-0.37
CCn1c2ccccc2c(=O)c2c1nnn1c3ccccc3nc21	-3.5	/
CCOC(=O)c1oc2ccccc2c1COc1ncnc2ccccc12	1.3	/
CC12CCC(O)CC1=CCC1C2CCC2(C)/C(=N/NC(=O)CCC(=O)O)CCC12 (stereo not given)	2.4	0.22
Cc1cc(C(=O)CSc2nc(N)c(C#N)cc2C#N)c(C)n1CCC1=CCCCC1	-0.4	/
CC(C)CNC(=O)COc1ccc(-c2nnco2)cc1	0.9	/
Nc1cc(C(=O)N2CCN(c3cccc(Cl)c3)CC2)ccc1N1CC2CC(C1)c1cccc(=O)n1C2 (stereo not given)	3.7	0.44
Cc1ccc(C)n1-c1cccc(N)c1	2.8	/
Cc1c(C#N)c2ccccc2n1CC(=O)NC1CCCCCC1	-0.9	0.3
O=c1ccccn1Cc1cn2ccccc2n1	-0.6	-0.81
S=C1NCN(Cc2ccccc2)CN1c1ccccc1	1.5	-0.087
CC(CNS(=O)(=O)c1ccc(-c2ccc(=O)[nH]n2)o1)c1ccccc1 (stereo not given)	-4.1	/
Cc1ccc(S(=O)(=O)Nc2nc3ccccc3nc2NCc2ccco2)cc1C	1.0	-0.63
O=C(COC(=O)C1CCN(c2ccc(C(F)(F)F)cn2)CC1)Nc1ccc(C(F)(F)F)cc1	-0.7	/
N#CCCN(Cc1cccs1)S(=O)(=O)c1ccc(-c2ccccn2)s1	1.0	0.031
O=C(Nc1nc2ccccc2[nH]1)c1cccc(S(=O)(=O)N2CCCC2)c1	0.3	/
CCN(CC)c1ccc(/C=c2\sc3nc(-c4ccco4)nn3c2=O)cc1	-15	6.4
C[N+](C)(C)CCCCCCCCCC[N+](C)(C)C	-5.0	0.81&1.3&1.8
CS(=O)(=O)NCC(c1cccs1)N1CCc2ccccc21 (stereo not given)	2.0	-0.99
COc1cc(Cl)c(C)cc1NC(=O)C1CSC2(C)CCC(=O)N12 (stereo not given)	2.3	/
Cc1cc(C)n(C2=NCCN2S(=O)(=O)c2cc(C(F)(F)F)cc(C(F)(F)F)c2)n1	-0.3	/

The list goes on:
Structure	BasE inh	KSHV LANA nucl
O=C1NCCCC1C(=O)N1CCc2ccccc21 (stereo not given)	-2.5	1.8
CCc1ccc(C(=O)COC(=O)c2cnc(C)cn2)cc1	-5.7	/
CC1CN(C(=O)C(C)NS(=O)(=O)c2cccc(Cl)c2)CC(C)O1 (stereo not given)	3.2	0.41
c1cncc(-c2nc3c4c5c(sc4ncn3n2)CCCC5)c1	0.1	/
O/N=C1/c2ccccc2/C(=N/O)C1c1ccc(Cl)cc1	-0.5	-0.35
Cc1[nH]c(=O)c(C#N)c2c1CCCC2	0.0	/
CCCCCN=C(N)N/N=C/c1c[nH]c2ccc(OC)cc12	1.6&2.0	-0.24&0.046
CC1(C)S[C@@H]2[C@H](NC(=O)[C@H](NC(=O)N3CCNC3=O)c3ccccc3)C(=O)N2C1C(=O)O (stereo not given in full)	0.5&-0.6	-0.78&0.1&0.34
CCCNC1=CC(=O)C(NCCC)=CC1=O	1.3	0.29
Nc1c(C(=O)c2ccc(Cl)cc2)sc2nsc(SCCN3CCCCC3)c12	/	0.053
Cc1cccc(NC(=O)c2cccc3c2C(=O)N(CC2CCCO2)C3)c1C (stereo not given)	-0.4	-0.6
CC1CCN(CC(=O)O)CC1	-0.4	-0.52
C=CCN1C(=O)/C(=c2\sc3nc(-c4cc(OC)c(OC)c(OC)c4)nn3c2=O)c2ccccc21	2.5	0.62
CCNCC(=O)Nc1ccc(NC(C)=O)cc1	3.7	/
CCc1cc2c(=O)c(-c3ccccn3)coc2cc1O	16	-0.32
COc1ccc(-c2noc(N3CCC(C(=O)O)CC3)n2)cc1OC	-6.5	-0.77
N#C/C(=C\Nc1cnccn1)S(=O)(=O)c1ccc(C(F)(F)F)cn1	1.5	/
Cc1ccc(NC2=NCC(=O)N2C2CCCC2)cc1C	-0.4	0.6
CCCCC1(CC)C(=O)NC(=O)NC1=Nc1ccc(OC)cc1 (stereo not given)	1.2	/
O=c1c(Cl)c(N2CCN(CCO)CC2)cnn1-c1ccccc1	1.9	0.46
CC(C)C(=O)O/N=C(\N)c1ccccc1	0.0	-0.48
CSc1ncc(C(=O)Nc2ccc3c(c2)OCCO3)n1-c1ccccc1	1.3	/
COCC(C)n1c(COc2ccccc2F)nnc1SCc1nnc(-c2ccccc2)o1 (stereo not given)	1.1	/
CSc1sc2c(O)cc(=O)[nH]c2c1C#N	0.0	1.4
CC1CCC2C(C1)c1sc(=O)[nH]c1SC2(C)C (stereo not given)	0.5	/

Going on with the list.
Structure	BasE inh	KSHV LANA nucl
COC(=O)c1sc(=S)n(-c2cccc(OC)c2)c1N	1.4	-0.034
O=C(/C=C/c1ccco1)NC(=S)N1CCNC(=O)C1CC(=O)OCC1CCCO1 (stereo not given)	-1.4	0.81
O=C1CN(C(=O)CSCc2c(F)cccc2Cl)c2ccccc2N1	-2.4	-0.41
Cc1csc(C2C(N)=NC(S)=C(C#N)C23CCCCC3)n1 (stereo not given)	-0.5	/
COc1nsnc1N1CCOCC1	0.2	/
CCCN(CC(=O)Nc1ccc(F)c(F)c1F)C(=O)/C=C/c1nc2ccccc2o1	1.0	/
CCOC(=O)N1CCC(NC(=O)c2cc(Cl)sc2Cl)CC1	/	-1.1
Cc1cc2ccccc2n1-c1ccc(C(=O)NC2CCCC2)s1	-2.3	2.2
CCOC(=O)C(C)Oc1ccc2c(-c3ccccc3)cc(=O)oc2c1 (stereo not given)	-0.1	/
O=C(O)/C(=C\c1cccc(C(F)(F)F)c1)Sc1nnc(-c2ccco2)o1	1.1	/
N#Cc1cc2c(=O)n3ccccc3nc2n(Cc2cccnc2)c1=O	4.5	0.31
CCNC(=S)N1CC=C(c2ccccc2)CC1	0.7	-0.95
Cc1ccc(C(=O)CCC(=O)O)s1	0.2	1.4
O=C1c2ccccc2-c2nnc(-c3ccc(Cl)cc3)cc21	3.4	0.22
COc1cc(CNc2ccc3[nH]c(=O)[nH]c3c2)ccc1OCC(N)=O	-0.8	-0.63
COC(=O)c1ccccc1NC(=O)N1CCOc2ccccc21	-3.4	1.1
CCOC(=O)c1sc(C)c2c(=O)n(Cc3ccccc3)c(C)nc12	1.3	/
CCOC(=O)Cc1nnc2c(Nc3ccccc3OC)nc3nonc3n12	0.3	-0.32
CCOC(=O)c1nc2ccccc2nc1NCCOC	16	/
COc1ccccc1C1CCN(C(=O)CSCc2cccc3ccccc23)CC1	-0.5	/
COCCN(Cc1nnc(-c2cccs2)o1)C(=O)c1cc2ccccc2o1	0.9	/
CCSc1nnc(-c2ccccc2)n1-c1ccccc1	0.4	-1.3
C/C(=N\N)c1ccc2c(c1)-c1ccccc1C2	0.4	/
CC(C(=O)Nc1ccccc1C(=O)NCc1ccco1)N(c1ccccc1)S(C)(=O)=O (stereo not given)	-0.9	-0.69
O=C(OCc1ccco1)C1c2ccccc2Oc2ccccc21	2.6	-0.45

Next part:
Structure	BasE inh	KSHV LANA nucl
CC1C(=O)c2ccccc2OC1O (stereo not given)	0.4	-0.6
CCOC(=O)Cc1csc(-c2ccc(Oc3ccc(C(F)(F)F)cn3)cc2)n1	2.1	/
CCC(C)C1Nc2ccc(C(=O)NCCc3ccc(OC)c(OC)c3)cc2NC1=O (stereo not given)	0.7	0.21
Brc1ccc(NC2=NCCCCCC2)cc1	1.5	/
COc1cccc(C2=NS(=O)(=O)N(C)C(C(=O)NC(C)(C)CO)=C2)c1	0.2	0.14
CCOC(=O)C1CCCCN1S(=O)(=O)c1ccc2c(c1)C(=C(C)C)C(=O)N2 (stereo not given)	-2.3	/
O=C(/C=C/c1ccc2c(c1)OCCO2)NC1CCCCC1	0.0	/
CC(C)c1ccc(NC(=S)NCCO)cc1	2.0	0.005
CCOC(=O)c1nccn1CC(=O)Nc1cccc(Cl)c1C	1.3	-0.053
CC(=O)Nc1cccc(Oc2cnc3ccccc3n2)c1	/	0.025
CCN(CC)S(=O)(=O)c1ccc(NC(=O)COc2ncnc3sc(C)c(C)c23)cc1	-1.9	/
O=C(Oc1ccc2c3c(c(=O)oc2c1)CCC3)C1CCCCC1	2.2	-0.59
CCNC(=S)N/N=C/c1ccc(O)cc1	5.5	/
O=C(CCBr)N1CCN(C(=O)CCBr)CC1	2.4	0.26&0.099
N#CCCN(Cc1ccccc1)S(=O)(=O)c1ccccc1	1.5	/
CN(C)c1ccc(CN2C(=O)CCC2(C)C(=O)N2CCCC2)cc1 (stereo not given)	-1.5	0.46
CC1(C)CC(C(CC(=O)O)Cc2ccccc2)CCO1 (stereo not given)	-1.6	-0.28
Cc1oc2c(F)c(F)c(F)c(F)c2c1-c1noc(C(C)(C)C)n1	-5.4	/
C=C1C(C(=O)Nc2ccc(N(C)C)cc2)C1C(=O)Nc1ccc(N(C)C)cc1 (stereo not given)	2.0	-0.86
O=C(CCn1c(=O)c2cccn2c2cccnc21)NCCCc1ccccc1	-1.9	-0.59
CC1Cc2cc(/C=C3\N=C(c4ccccc4F)OC3=O)ccc2O1 (stereo not given)	1.6	/
COc1ccc(CCNC(=O)C2CCN(S(=O)(=O)N3CCCCC3)CC2)cc1OC	1.2	-0.97
Cc1ccc(S(=O)(=O)NC(C(=O)O)C(C)C)cc1C (stereo not given)	-0.6	/
CCOc1ccc(/C=C/C(=O)CCC(=O)O)cc1	/	0.72
CNC(=O)/C(C#N)=C\c1ccc(Sc2ccccc2)o1	3.3	0.2

Remaining list, next part
Structure	BasE inh	KSHV LANA nucl
NNC(=O)CCc1cccc(S(=O)(=O)N2CCOCC2)c1	0.1	/
CC1CC(=O)N(CC(=O)NCc2ccc(F)cc2)c2ccccc2S1(=O)=O (stereo not given)	-1.0	0.57
COC(=O)CSC(C)c1nc2ccccc2c(=O)[nH]1 (stereo not given)	-1.0	/
Cc1cc(C)c(NC(=O)CCn2nnc3ccccc32)c(C)c1	0.0	-1.1
CC(C)c1ccc(-c2noc(C3CCCN(S(C)(=O)=O)C3)n2)cc1 (stereo not given)	-2.3	1.9
O=C1Cn2c(nc3ccccc3c2=O)CN1Cc1ccc2c(c1)OCO2	-1.8	/
COc1ccc(S(=O)(=O)n2c(=O)cnc3ccccc32)cc1	3.0	/
CC1CCN(S(=O)(=O)c2ccc(C(=O)Nc3c(C(N)=O)oc4ccccc34)cc2)CC1	-1.2	-0.16
COCCn1c(SCC(=O)N2CCNC2=O)nc2ccccc21	-1.0	/
CCOC(=O)N1CCN(CN2C(=O)NC(c3ccccc3)(c3ccccc3)C2=O)CC1	-1.7	/
COc1ccc(C)cc1NC(C)C(=O)NC(=O)NC1CCCCC1 (stereo not given)	-0.4	/
CC1Cc2ccccc2N1C(=O)COc1ncnc2c1cnn2-c1ccccc1 (stereo not given)	1.8	/

3 entries from above in another layout:
Under each structure – BasE inh | KSHV LANA nucl
CCCCCN=C(N)N/N=C/c1c[nH]c2ccc(OC)cc12
 : 1.6&2.0 | -0.24&0.046
CC1(C)S[C@@H]2[C@H](NC(=O)[C@H](NC(=O)N3CCNC3=O)c3ccccc3)C(=O)N2C1C(=O)O (stereo not given in full)
 : 0.5&-0.6 | -0.78&0.1&0.34
CCCNC1=CC(=O)C(NCCC)=CC1=O
 : 1.3 | 0.29

In the list so far, these contain an NH in an aromatic ring.
Structure	BasE inh	KSHV LANA nucl
CC(CNS(=O)(=O)c1ccc(-c2ccc(=O)[nH]n2)o1)c1ccccc1 (stereo not given)	-4.1	/
O=C(Nc1nc2ccccc2[nH]1)c1cccc(S(=O)(=O)N2CCCC2)c1	0.3	/
Cc1[nH]c(=O)c(C#N)c2c1CCCC2	0.0	/
CCCCCN=C(N)N/N=C/c1c[nH]c2ccc(OC)cc12	1.6&2.0	-0.24&0.046
CSc1sc2c(O)cc(=O)[nH]c2c1C#N	0.0	1.4
CC1CCC2C(C1)c1sc(=O)[nH]c1SC2(C)C (stereo not given)	0.5	/
COc1cc(CNc2ccc3[nH]c(=O)[nH]c3c2)ccc1OCC(N)=O	-0.8	-0.63
COC(=O)CSC(C)c1nc2ccccc2c(=O)[nH]1 (stereo not given)	-1.0	/

Screening data from PubChem.
